# Compound activity deposited in PubChem by Broad Institute.
# Ecoli rRNA inh = inhibitors of bacterial rRNA selective over humanized ribosomes; E. coli WT GFP vs humanized-ribosome RFP mutants, fluorescence, 24 h; active compounds read low; DMSO median 0, no signal -100; GFP signal change (wild-type ribosome), % (concentration not given with the values); 350,000 compounds, 1.6% hits;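 active = significant combined selectivity score with lowered wild-type GFP, culture density cut under 30%, mutant RFP and density less affected; inactive = any of these conditions unmet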; also: one replicate is shown; some compounds called inactive have numbers as strong as hits
# Ecoli rRNA inh OD600 = second read-out of Ecoli rRNA inh, no call of its own (marks repeat the call); OD600 change, %; measured here: OD600 growth;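 optical density of the mix in the first replicate; 0 = DMSO median and -100 = no signal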
# Ecoli rRNA inh RFP = also measured in Ecoli rRNA inh; calls as there; RFP signal change, %; measured here: RFP humanized mutant strains;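 first replicate; 0 = DMSO median and -100 = no signal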
# * hit, by the source's call; & = joins results of further samples.
# Values run as follows: Ecoli rRNA inh RFP, Ecoli rRNA inh OD600, Ecoli rRNA inh
> COc1ccc2c3c([nH]c2c1)[C@H](CO)N(C(=O)c1cccc(F)c1)CC31CCN(C(C)=O)CC1
    -5.1, 5.3, -0.5
> C[C@@H]1C=CCCO[C@]12C(=O)N(Cc1ccc(F)cc1)c1ccccc12
    -5.8, -33.8, -26.7
> C[C@H](CO)N1C[C@H](C)[C@H](CN(C)C(=O)Nc2ccc(F)cc2)Oc2ncc(C#Cc3ccccc3)cc2C1=O
    5.1, 4.9, -4.5
> O=C(NCc1ccccc1)c1nc(-c2c(F)cccc2F)oc1-c1ccccc1
    -1.3, 18.2, 8.2
> N#Cc1ccc(-c2ccc3c(c2)[C@H]2[C@H](CCN2C(=O)c2cccnc2)[C@@H](CO)N3)cc1
    1.0, -5.2, -0.8
> CO[C@@H]1CN(C)C(=O)c2cc(NS(C)(=O)=O)ccc2OC[C@@H](C)N(Cc2ccccn2)C[C@@H]1C
    -0.9, -0.1, 1.6
> C[C@@H]1CN([C@H](C)CO)S(=O)(=O)c2ccc(-c3ccccc3)cc2O[C@H]1CN(C)C(=O)c1ccccc1F
    2.8, -33.2, -10.7
> COC(=O)C[C@@H]1CC[C@H]2[C@H](COc3ccc(NC(=O)Nc4ccc(Cl)cc4)cc3C(=O)N2C)O1
    7.4, -18.1, -6.7
> Cc1ccc(S(=O)(=O)N(C)C[C@H]2Oc3ccc(NS(=O)(=O)c4cn(C)cn4)cc3C(=O)N([C@@H](C)CO)C[C@H]2C)cc1
    1.0, 2.6, -0.4
> COc1ccc(-c2ccc3c(c2)[C@@H]2[C@@H](CCN2C(=O)Cc2ccccc2)[C@@H](CO)N3C)cc1
    23.4, -59.9, -32.7
> COc1cccc(-c2cc(CNC(=O)[C@H]3O[C@@H](n4cnc(C(N)=O)n4)[C@H](O)[C@@H]3O)no2)c1
    1.9, 7.6, 3.0
> C[C@H]1CCCCO[C@H](CN(C)S(=O)(=O)c2ccc(Cl)cc2)[C@@H](C)CN([C@@H](C)CO)C(=O)c2cc(NC(=O)Nc3ccc(C(F)(F)F)cc3)ccc2O1
    -1.4, 7.6, 2.4
> CC(C)CC#Cc1ccc([C@H]2[C@H](CO)N3CCCCN(C(=O)Nc4ccccc4)C[C@@H]23)cc1
    -13.9, -76.0, -56.5
> O=C1N[C@H](Cc2ccccc2)COCc2cnnn2CC[C@@H]1Cc1ccc(-c2ccccc2)cc1
    -2.3, -3.1, -1.4
> COc1ccc(NC(=O)N[C@H]2CC[C@@H](CCNC(=O)Nc3cc(F)ccc3F)O[C@@H]2CO)cc1
    0.4, -1.4, -5.6
> CO[C@@H]1CN(C)C(=O)c2ccc(NC(=O)NC(C)C)cc2OC[C@@H](C)N(Cc2cncnc2)C[C@@H]1C
    0.4, 6.1, 0.7
> COc1ccc(S(=O)(=O)N(C)C[C@H]2Oc3ncc(/C=C/c4ccccc4)cc3C(=O)N([C@@H](C)CO)C[C@H]2C)cc1
    -2.0, 3.2, -2.1
> C[C@@H]1CN([C@@H](C)CO)C(=O)c2ccccc2-c2ccccc2CO[C@@H]1CN(C)Cc1ccc(-c2ccccc2)cc1
    -0.1, 3.5, 4.8
> COc1ccc(NC(=O)N2C[C@H]3[C@@H](c4ccccc42)[C@H](CO)N3C(=O)C2CC2)cc1
    -0.9, 3.4, 1.8
> COc1ccc(NC(=O)N(C)C[C@H]2Oc3ccc(NC(=O)Cc4ccccc4)cc3C(=O)N([C@H](C)CO)C[C@H]2C)cc1
    2.8, 3.1, 2.2
> O=C(Nc1ccc(F)cc1)Nc1ccc2c(c1)[C@H]1C[C@@H](CC(=O)N3CCCCC3)O[C@@H](CO)[C@H]1O2
    1.5, -18.3, -6.1
> COc1ccc(CN(C)C[C@H]2OCCCC[C@H](C)Oc3ccc(NS(=O)(=O)c4ccc(OC)cc4)cc3C(=O)N([C@H](C)CO)C[C@@H]2C)cc1
    -1.2, -2.8, 1.2
> CCC(=O)N1C[C@H](C)[C@@H](OC)CN(C)C(=O)c2ccc(NC(=O)c3cc(C)on3)cc2OC[C@H]1C
    -2.4, -2.8, -0.8
> C[C@@H]1CCCCO[C@@H](CN(C)C(=O)Nc2ccccc2)[C@H](C)CN([C@@H](C)CO)C(=O)c2cc(NC(=O)Nc3ccc(C(F)(F)F)cc3)ccc2O1
    0.0, -0.9, 4.5
> COC(=O)C1=C(C)N(Cc2ccccc2C(F)(F)F)C(=NCc2ccc3c(c2)OCO3)NC1c1ccc(F)cc1 (configuration not stated)
    -15.4, -77.3, -45.6
> C[C@H](CO)N1C[C@H](C)[C@@H](CN(C)CC2CCCCC2)Oc2c(NC(=O)Nc3ccc(F)cc3)cccc2C1=O
    4.6, -33.2, -11.3
> C[C@H](CO)N1C[C@H](C)[C@H](CN(C)S(=O)(=O)c2cn(C)cn2)Oc2ncc(-c3cc4ccccc4o3)cc2C1=O
    2.5, 1.8, 0.9
> C[C@@H]1CN([C@@H](C)CO)C(=O)c2cc(-c3ccccc3)cnc2O[C@@H]1CN(C)C(=O)Nc1ccccc1
    -2.1, 12.1, -1.7
> COc1ccc(S(=O)(=O)Nc2ccc3c(c2)C(=O)N([C@H](C)CO)C[C@@H](C)[C@H](CN(C)Cc2ccccc2)OCCCC[C@H](C)O3)cc1
    4.2, -9.3, 0.3
> CCCNC(=O)Nc1ccc2c(c1)C(=O)N(C)C[C@H](OC)[C@@H](C)CN(Cc1ccc(-c3ccccn3)cc1)[C@@H](C)CO2
    0.1, -16.6, -3.6
> CCNC(=O)Nc1ccc2c(c1)C(=O)N(C)[C@@H]1CC[C@H](CC(=O)NCc3cccc(F)c3)O[C@@H]1CO2
    0.8, 0.3, 2.1
> Cc1ccc(-c2ccc([C@H]3[C@H]4CN(C(=O)Nc5cccc(F)c5)CCCCN4[C@H]3CO)cc2)cc1
    5.9, -13.6, -1.6
> COc1cccc(CNC(=O)C[C@@H]2CC[C@@H]3[C@H](COc4ccc(NC(C)=O)cc4C(=O)N3C)O2)c1
    1.1, 4.1, 2.5
> CNC(=O)C[C@@H]1CC[C@@H]2[C@@H](COc3ccc(NC(=O)NC(C)C)cc3C(=O)N2C)O1
    1.5, 3.1, 0.8
> COC(=O)C1=C(C)N(Cc2cccc(C(F)(F)F)c2)C(=NCc2ccc(OC)cc2)NC1c1ccccc1C(F)(F)F (configuration not stated)
    -14.1, -73.1, -42.9
> CN(C)C(=O)[C@H]1[C@H](CO)[C@H]2Cn3c(ccc(-c4cncnc4)c3=O)[C@@H]1N2C(=O)NC1CCCC1
    -0.6, -3.7, 0.6
> CC(C)NC(=O)N(C)C[C@H]1OCCCC[C@H](C)Oc2ccc(NC(=O)c3ccncc3)cc2C(=O)N([C@@H](C)CO)C[C@H]1C
    -1.8, 6.0, 3.2
> CNC(=O)C[C@H]1CC[C@H]2[C@@H](COc3ccc(NC(=O)NCc4ccccc4)cc3C(=O)N2C)O1
    -0.4, 2.9, -0.3
> CC(=O)N(C)C[C@@H]1Oc2ccc(NC(=O)NC(C)C)cc2C(=O)N(C)C[C@@H]1C
    -1.2, 4.7, 1.4
> CCCC(=O)Nc1ccc2c(c1)C(=O)N(C)C[C@H](OC)[C@H](C)CN(CC1CCOCC1)[C@H](C)CO2
    0.1, 6.0, 1.8
> COC(=O)C1=C(C)N(Cc2cccc(C(F)(F)F)c2)C(=NCc2ccccc2C(F)(F)F)NC1c1ccccc1C(F)(F)F (configuration not stated)
    0.0, -3.3, -7.9
> C[C@H](CO)N1C[C@H](C)[C@H](CN(C)C(=O)C2CCC2)Oc2cc(Br)ccc2S1(=O)=O
    4.8, 0.8, -1.5
> CCCNC(=O)Nc1ccc2c(c1)C(=O)N(C)[C@H]1CC[C@@H](CC(=O)NC)O[C@H]1CO2
    -0.1, -1.1, 1.4
> COC(=O)C[C@H]1C[C@@H]2c3cc(NS(=O)(=O)c4ccc(OC)cc4)ccc3O[C@@H]2[C@@H](CO)O1
    -1.9, -1.6, -1.6
> C[C@H]1CCCCO[C@H](CN(C)C(=O)Nc2ccc(F)cc2)[C@@H](C)CN([C@@H](C)CO)C(=O)c2cc(NS(=O)(=O)c3ccc(F)cc3)ccc2O1
    3.3, -2.2, -2.8
> COCC(=O)N1C[C@H](C)[C@H](OC)CN(C)C(=O)c2ccc(NC(=O)Nc3cccc(F)c3)cc2OC[C@H]1C
    0.8, 0.7, -4.7
> COc1ccc(NC(=O)Nc2ccc3c(c2)C(=O)N([C@@H](C)CO)C[C@@H](C)[C@@H](CN(C)C(=O)Nc2ccc4c(c2)OCO4)O3)cc1
    -3.6, 0.3, 2.4
> COc1ccc(NC(=O)Nc2ccc3c(c2)C(=O)N([C@@H](C)CO)C[C@@H](C)[C@H](CN(C)S(=O)(=O)c2ccc(OC)cc2)OCCCC[C@H](C)O3)cc1
    0.2, 1.8, -0.4
> COc1ccc(S(=O)(=O)N(C)C[C@H]2Oc3c(NS(=O)(=O)c4ccc(Cl)cc4)cccc3C(=O)N([C@@H](C)CO)C[C@@H]2C)cc1
    2.8, 0.1, -2.1
> O=C1N[C@@H](Cc2ccccc2)COCc2cn(nn2)CC[C@@H]1Cc1cccc(F)c1
    -4.9, 7.6, 4.9
> C[C@@H]1CN([C@H](C)CO)C(=O)c2cc(C#Cc3cccc(F)c3)cnc2O[C@H]1CN(C)C(=O)C1CCOCC1
    -0.2, 0.1, 0.9
> COc1ccc(NC(=O)N(C)C[C@H]2OCCCC[C@H](C)Oc3ccc(NC(=O)Nc4cccc5ccccc45)cc3C(=O)N([C@H](C)CO)C[C@@H]2C)cc1
    -1.3, -2.9, -6.3
> COC(=O)[C@@H](Cc1ccc(O)cc1)NC(=O)[C@H]1O[C@@H](n2cnc3c(=O)[nH]c(N)nc32)[C@H](O)[C@@H]1O
    2.8, 7.8, 12.0
> CO[C@@H]1CN(C)C(=O)c2ccc(NC(=O)Nc3cccc(F)c3)cc2OC[C@H](C)N(C(=O)C2CC2)C[C@H]1C
    17.3, -9.8, -18.5
> C[C@H]1CN([C@@H](C)CO)C(=O)c2c(c3ccccc3n2C)-c2ccccc2CO[C@@H]1CN(C)Cc1cccc(C(=O)O)c1
    -4.0, -0.6, -2.8
> C/C=C/c1ccc([C@@H]2[C@@H](CN(C)C(C)=O)N(C(=O)NC(C)C)[C@H]2CO)cc1
    -0.4, 5.7, -0.6
> C[C@H](CO)N1C[C@H](C)[C@@H](CN(C)S(=O)(=O)c2ccc(Cl)cc2)OCc2cn(nn2)CCCC1=O
    1.2, -2.8, -0.8
> Cc1noc(C)c1S(=O)(=O)Nc1ccc2c(c1)CC(=O)N([C@H](C)CO)C[C@@H](C)[C@@H](CN(C)S(C)(=O)=O)O2
    -3.3, 2.7, 0.3
> C[C@H]1CN(C)C(=O)c2cccc(N(C)C)c2O[C@H]1CN(C)C
    -1.0, 4.7, 3.1
> COc1ccc(-c2ccc(C3[C@@H]4CN(S(=O)(=O)c5ccccc5C)C[C@H]3N4)cc2)cc1 (some centres not stated)
    1.8&-19.5, -10.8&-72.0, -9.5&-56.3

# (cont.)
# Values run as follows: Ecoli rRNA inh RFP, Ecoli rRNA inh OD600, Ecoli rRNA inh
> COC(=O)[C@@]12C[C@@H](CC(=O)N3CCOCC3)C(=O)N(Cc3ccc4c(c3)OCO4)C1=CCC(C)(C)C2
    1.4, 8.2, -2.2
> N#C[C@H]1[C@@H](c2ccccc2-c2ccccc2)[C@H](CO)N1C(=O)Cc1ccccc1
    5.0, -40.7, -14.1
> COc1ccccc1C(=O)N1CCC2CCNC2C1 (configuration not stated)
    -0.3, 13.6, 7.8
> O=C(c1ccc2c(c1)OCO2)N1C[C@@H]2N[C@H](C1)C2c1ccc(-c2ccccc2F)cc1 (some centres not stated)
    -13.8&13.4, -77.8&-59.0, -59.0&-24.2
> COc1ccc(NC(=O)N(C)C[C@@H]2Oc3ccc(NC(=O)Nc4ccc5c(c4)OCO5)cc3CC(=O)N([C@H](C)CO)C[C@H]2C)cc1
    0.2, -0.5, -2.8
> CCNC(=O)Nc1ccc2c(c1)C(=O)N(C)[C@H]1CC[C@@H](CC(=O)NCCN3CCCC3)O[C@@H]1CO2
    -0.8, 5.0, 2.4
> C[C@H]1CN(C)C(=O)Cc2ccccc2O[C@H]1CN(C)C(=O)OC(C)(C)C
    0.2, -12.9, -3.2
> CC(=O)N(C)C[C@@H]1Oc2ccc(N(C)C)cc2CC(=O)N(C)C[C@H]1C
    0.0, 5.2, 0.3
> CO[C@H]1CN(C)C(=O)c2ccc(NC(=O)C3CC3)cc2OC[C@@H](C)N(Cc2cncnc2)C[C@@H]1C
    -2.5, 2.5, -0.2
> COCC(=O)Nc1ccc2c(c1)[C@H]1C[C@H](CC(=O)N3CCN(C)CC3)O[C@@H](CO)[C@H]1O2
    -2.2, 4.2, -1.5
> C[C@@H]1CN([C@@H](C)CO)C(=O)CCCn2nncc2CO[C@@H]1CN(C)C
    -2.7, 11.4, 2.3

# Gathered by group, those above containing a CF3 group
# Values run as follows: Ecoli rRNA inh RFP, Ecoli rRNA inh OD600, Ecoli rRNA inh
> C[C@H]1CCCCO[C@H](CN(C)S(=O)(=O)c2ccc(Cl)cc2)[C@@H](C)CN([C@@H](C)CO)C(=O)c2cc(NC(=O)Nc3ccc(C(F)(F)F)cc3)ccc2O1
    -1.4, 7.6, 2.4
> C[C@@H]1CCCCO[C@@H](CN(C)C(=O)Nc2ccccc2)[C@H](C)CN([C@@H](C)CO)C(=O)c2cc(NC(=O)Nc3ccc(C(F)(F)F)cc3)ccc2O1
    0.0, -0.9, 4.5
> COC(=O)C1=C(C)N(Cc2ccccc2C(F)(F)F)C(=NCc2ccc3c(c2)OCO3)NC1c1ccc(F)cc1 (configuration not stated)
    -15.4, -77.3, -45.6
> COC(=O)C1=C(C)N(Cc2cccc(C(F)(F)F)c2)C(=NCc2ccc(OC)cc2)NC1c1ccccc1C(F)(F)F (configuration not stated)
    -14.1, -73.1, -42.9
> COC(=O)C1=C(C)N(Cc2cccc(C(F)(F)F)c2)C(=NCc2ccccc2C(F)(F)F)NC1c1ccccc1C(F)(F)F (configuration not stated)
    0.0, -3.3, -7.9

# A portion of the library. The share of hits here may be higher or lower than overall.
